# Screening results deposited in PubChem by National Center for Advancing Translational Sciences (NCATS).
# NS1 inh: influenza NS1 inhibition; AID 2326; Potency, µM (titrated, usually from 46.1 µM), for the others: top-dose activity, positive = more growth; S. cerevisiae slowed by influenza A NS1, growth recovery by OD600; 270,000 compounds, 0.4% hits; note: actives are rising curves; nearly all actives have a fitted effect of over 50% in size
#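 Compounds were scored for reversing the slow growth caused by influenza A NS1 in S. cerevisiae, measured by optical density at 600 nm. Assay medium contained 2% galactose at pH 6.0; NS1-free yeast of the same strain were the positive control.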
# MARV entry inh: inhibitors of Marburg virus binding or cell entry. 300,000 compounds, 1.8% hits. Marburg virus pseudotyped entry inhibition, cell reporter; control for the full effect not named in the record; about a third of the inactives were read at about 46 µM. AID 540276. Potency, µM (doses to about 37.8 µM), inactives show top-dose activity change, negative = inhibition, usual class: inhibitors; active = well fitted inhibition curve with a large enough effect; inconclusive = small, poorly fitted or top-dose-only effect, or effect the other way; inactive = flat fitted curve, though single readings scatter; tested in HEK293 cells; about a fifth of its hits are not listed in these tables; note: % is set by controls: 0 for no effect and ±100 for the full control effect; luciferase read-out
# Cruzain inh noDet: blocks cruzain activity in detergent-free assay | P25779 | Potency, µM, without a hit: max response, negative = inhibition, usual class: inhibitors | 200,000 compounds, 2.3% hits | purified cruzain, Z-FR-AMC fluorescence, no detergent; active = well fitted curve in the direction sought with a large enough effect; inconclusive = small, poorly fitted or top-dose-only effect, or another doubt; inactive = no such curve, though single readings can be large; an effect the other way counts as inactive or inconclusive;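 note: plate controls were enzyme without inhibitor for no effect and buffer without enzyme for full effect; nearly all actives have a fitted effect of over 40% in size; top concentration of the series not given in the record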
# Target sequence (P25779 123-467 limits assumed): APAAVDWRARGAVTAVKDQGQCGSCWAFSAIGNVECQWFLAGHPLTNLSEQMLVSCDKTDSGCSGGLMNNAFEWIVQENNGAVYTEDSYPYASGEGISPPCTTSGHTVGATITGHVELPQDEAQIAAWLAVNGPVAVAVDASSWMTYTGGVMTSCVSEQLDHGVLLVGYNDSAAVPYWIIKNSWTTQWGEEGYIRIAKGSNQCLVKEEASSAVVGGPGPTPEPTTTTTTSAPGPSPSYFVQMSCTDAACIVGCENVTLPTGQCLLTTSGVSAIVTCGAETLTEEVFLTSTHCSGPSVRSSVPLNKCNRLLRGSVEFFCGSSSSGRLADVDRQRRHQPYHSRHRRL
#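 Purified cruzain at 1.5 nM, pre-incubated 15 min with compound at room temperature in 100 mM sodium acetate pH 5.5, 5 mM DTT, 0.00005% Triton X-100. Reaction started with 2 uM Z-FR-AMC; AMC fluorescence increase over 60 s gives rate.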
# RE007 growth inh: less growth of the S. pombe RE007 Vpr strain. Potency, µM (doses to about 92.2 µM), for the others: at the top dose activity change, negative = less growth. 360,000 compounds, 0.21% hits. AID 651644. S. pombe RE007 Vpr strain, BacTiter-Glo ATP luminescence, 24 h; control for the full effect not named in the record; active = well fitted falling curve with a large enough effect; inconclusive = small, poorly fitted or top-dose-only effect; inactive = no such curve, though single readings can be large or run the other way;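 note: % is set by controls: 0 for no effect and ±100 for the full control effect; nearly all actives have a fitted effect of over 50% in size; the assay follows cell death caused by Vpr and the record does not say whether a fall means rescue or toxicity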
#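 Fission yeast RE007 carrying one integrated HIV-1 vpr copy, seeded at OD 0.01 in PMG+AL medium with 23 nL pinned compound. Grown 24 h at 30 degrees; viability read by BacTiter-Glo luminescence after 5 min.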
# StopGo reporter: lowers the luciferase signal of an FMDV 2A StopGo reporter | 410,000 compounds, 1.2% hits | human cells with a luciferase reporter of 2A StopGo recoding; control for the full effect not named in the record | Potency, µM (highest dose often 57.9 µM), inactives show top-dose signal change, negative = less light | AID 1159524; active = well fitted falling curve with a large enough effect; inconclusive = small, poorly fitted or top-dose-only effect; inactive = no such curve, though single readings can be large or run the other way; tested in HEK293T cells; note: % is set by controls: 0 for no effect and ±100 for the full control effect; nearly all actives have a fitted effect of over 45% in size; luciferase light after 4 h
# LASV entry inh: inhibitors of Lassa virus binding or cell entry; Lassa virus pseudotype entry inhibition, cell reporter; control for the full effect not named in the record; Potency, µM (titrated, usually from 37.9 µM), for the others: top-dose activity change, negative = inhibition, usual class: inhibitors; 300,000 compounds, 1.2% hits; AID 540256; active means well fitted inhibition curve with a large enough effect; inconclusive means small, poorly fitted or top-dose-only effect, or effect the other way; inactive means flat fitted curve, though single readings scatter; tested in HEK293 cells; note: % is set by controls: 0 for no effect and ±100 for the full control effect; nearly all actives have a fitted effect of over 50% in size; luciferase read-out
# Cruzain inh Det: blocks cruzain activity in presence of Triton detergent | 200,000 compounds, 0.43% hits | Potency, µM, without a hit: max response, negative = inhibition, usual class: inhibitors | purified cruzain, Z-FR-AMC fluorescence, 0.01% Triton | P25779; active = well fitted curve in the direction sought with a large enough effect; inconclusive = small, poorly fitted or top-dose-only effect, or another doubt; inactive = no such curve, though single readings can be large; an effect the other way counts as inactive or inconclusive;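 note: plate controls were neutral wells for no effect and buffer without enzyme for full effect; nearly all actives have a fitted effect of over 40% in size; top concentration of the series not given in the record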
#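 Sodium acetate buffer (100 mM, pH 5.5) containing 5 mM DTT and 0.01% Triton X-100 hosted 1.5 nM cruzain and test compound for 15 min at room temperature. Cleavage of 2 uM Z-FR-AMC was then tracked by fluorescence.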
# SARS PLpro yeast: inhibitors of SARS-CoV papain-like protease in yeast; S. cerevisiae expressing SARS-CoV PLpro, growth rescue; control for the full effect not named in the record; Potency, µM (top dose mostly 32.9 µM), without a hit: top-dose activity, positive = growth rescue; 330,000 compounds, 0.19% hits; note: 0% is about no effect; nearly all actives have a fitted effect of over 55% in size; growth read by luminescence after 48 h
# * = called active by the depositor; ? = inconclusive; . = no result given; & = joins results of further samples; [ ] = another dose, or the depositor's remark. Unless noted, calls come from the whole dose curve; as a rule, active means well fitted rising curve with a large enough effect; inconclusive means small, poorly fitted or top-dose-only effect; inactive means no such curve, though single readings can be large or run the other way. Potency is the fitted concentration of half-maximal effect.
SMILES,NS1 inh,MARV entry inh,Cruzain inh noDet,RE007 growth inh,StopGo reporter,LASV entry inh,Cruzain inh Det,SARS PLpro yeast
N=C1C(c2ccccc2)=C(O)CN1NC(=O)c1ccccc1,.,8%[46.1 µM],.,9%,-14%,-6%,.,-1%
O=C(O)c1ccc(N/N=C/c2c[nH]c3ccccc23)cc1,4%,.,.,-10%,6.3µM*,.,.,-2%
Cc1ccc(C(=O)NNC(=O)c2ccc(C)cc2)cc1,.,26%[46.1 µM],.,7%,26%,15%,.,0%
O=C(Cn1c(=O)cnc2ccccc21)NCC(=O)Nc1ccc(F)c(F)c1,.,-14%,.,2%,-9%,-4%,.,.
CC1CCC(NC(=O)c2cc3c(Cl)nc4ccccc4c3s2)CC1 (centres undefined),.,6%[46.1 µM],21%,.,-2%,4%[46.1 µM],2.5%,.
COc1ccc(Nc2ncnc3sccc23)c(OC)c1,-18%,0%,.,3%,8%,20%,.,-4%
O=C1N/C(=C\c2ccc(O)cc2)C(O)=C1C=NCc1ccccc1,-6%,?,2%,.,31%[activator],?,-12%,8%
O=C(CCc1ccccc1)NNC(=O)Nc1ccc(Br)cc1,3%,13%[46.1 µM],.,-5%,19%,-13%[46.1 µM],.,0%
COc1cc2c(cc1NC(=O)COC(=O)[C@@H](NC(=O)c1ccccc1)C(C)C)oc1ccccc12,-16%,?,32µM*,-17%,-6%,-25%,-8.6%,12%
CSc1ccc(C(=O)C2CCCN(C)C2)cc1 (centres undefined),3%,?,.,-7%,0%,1%[46.1 µM],.,0%
CCC(CC)C(=O)c1c[nH]c(C(=O)NCc2ccccn2)c1,.,1%[46.1 µM],.,2%,28%,?,.,-3%
COc1ccc(N(CC(=O)NCCc2cccc(C)c2)S(=O)(=O)c2c(C)noc2C)cc1,9%,-25%&-25%[46.1 µM],6%,-11%,-22%&-24%,-17%[46.1 µM],-5.8%,-3%
O=C(NCc1ccccn1)c1cn(-c2ccccc2)nc1-c1ccc(Cl)cc1,5%,2%,?,-2%,0%,-11%,-9.3%,-9%
Cc1ccc(-c2nc(CS(=O)CC(=O)N3CCC4(CC3)OCCO4)c(C)o2)cc1 (centres undefined),6%,3%,1%,.,.,.,1.2%,4%
Cc1nn(Cc2ccccc2)c(C)c1C=C1C(=O)NC(=O)NC1=O,13%,?,3%,-2%,?,-12%,1.0%,17%
O=C(NCC1CCCO1)c1cccc(NC(=O)c2cccs2)c1 (centres undefined),-2%,6%,.,11%,4%,?,.,-1%
CCC1CCCCN1C(=O)Cn1c(=O)n(CCCCCC(=O)NCc2ccc(F)cc2)c(=O)c2sccc21 (centres undefined),.,11%[46.1 µM],4%,.,-14%,8%[46.1 µM],-2.4%,.
CC(Cc1cccs1)NC(=S)Nc1ccc(Cl)c(Cl)c1 (centres undefined),-55%,-6%,-2%,3%,38%[activator],-10%,-3.3%,.
COc1ccc(Nc2cc(C)nc(N3CCN(C(=O)c4ccc5c(c4)OCO5)CC3)n2)cc1,.,6%,.,-3%,-13%,-1%,.,2%
O=C(COC(=O)c1cncc(Br)c1)NC1CCCCCC1,-2%,?,.,23%,-14%,6%[46.1 µM],.,0%
O=C1COc2ccc(C(=O)C[n+]3cccc(O)c3)cc2N1,1%,0%[46.1 µM],.,-13%,-6%,0%,.,0%
Cc1cccc(N=C2c3cc([N+](=O)[O-])ccc3-c3c2cc([N+](=O)[O-])cc3[N+](=O)[O-])c1,.,?,.,22µM*,?,-30%,.,.
CCc1ccc(CN2CC(C(=O)O)CC2=O)cc1 (centres undefined),-5%,16%,11%,-5%,-15%,-3%,6.2%,-3%
O=C(COc1ccccc1)Nc1sc2c(c1C(=O)Nc1ccccc1Cl)CCCCC2,.,.,3%,.,-6%,9%[46.1 µM],0.1%,.
O=C(CSc1n[nH]c(-c2ccccc2)n1)N1CCN(c2ccc(F)cc2)CC1,.,.,-14%,.,-16%,-10%[46.1 µM],2.1%,.
Cc1ccccc1NC(=O)C(=O)NC(C)CCc1ccccc1 (centres undefined),10%,10%,-28%,10%,2%,-2%,-0.9%,0%
O=C(c1cc(-c2ccc(F)cc2)on1)N1CCCC1,-2%,?,6%,-15%,-48%,?,-0.5%,-1%
N[C@H](CCCP(=O)(O)O)C(=O)O,.,9%&9%,-3%&5%,.,-3%&-11%,.,2.0%&9.6%,.
CC(C)(C)c1ccc(C(=O)Nc2ccc(-c3nc4ccccc4o3)c(O)c2)cc1,.,.,-1%,.,-13%,5%[46.1 µM],-0.8%,.
Cc1ccc(C)c(Sc2ccc(NC(=O)CCl)cc2)c1,-57%,?,-10%,8%,20µM*,?,-9.7%,-63%
CCCCc1nc2n[nH]c(N)c2c2c1CCC2,4%,-11%[46.1 µM],-1%,-2%,-21%,-15%,6.0%,-2%
CC(C)C[C@H](NC(=O)OC(C)(C)C)C(=O)N[C@@H](CO)[C@H](O)[C@@H]1C[C@@H]1C(=O)N1CCCC1,15%,.,.,-2%,1%,.,.,12%
COc1cc(CCC(=O)Nc2ccncc2Cl)cc(OC)c1OC,9%,6%,.,3%,-24%,20%,.,-2%
CC(C)c1nccn1S(=O)(=O)c1cc([N+](=O)[O-])ccc1Cl,7%,?,-16%,.,-7%,3%,-3.0%,-5%
CC(=O)C1C(c2ccc(OC(F)F)cc2)NC(=O)NC1(O)C(F)(F)F (centres undefined),4%,.,8%,8%,-5%,.,3.8%,6%
COc1ccc(C)cc1NC(=O)CSc1nc(=O)n(CCCN2CCOCC2)c2c1CCCC2,.,-14%,.,-10%,6%,13%,.,.
CC(C)(C)NC(=O)C(c1ccncc1)N(C(=O)Cn1nnc(-c2cccs2)n1)C1CCCCC1 (centres undefined),0%,-1%,13%,-3%,48%[activator],-17%,-2.1%,2%
CC(=O)N1CCc2cc(S(=O)(=O)NCCC(=O)NC3CCCCCC3)ccc21,-6%,.,.,-7%,-14%,.,.,-1%
COc1ccc(C2CC(c3ccccc3)=NN2C(=O)COC(=O)C2(C)CC2(Cl)Cl)cc1 (centres undefined),4%,?,.,5%,-12%,-22%,.,-7%
NS(=O)(=O)c1ccc(NC(=O)c2ccc3c(c2)OCO3)cc1,7%,?,.,5%,32%[activator],?,.,1%
Cc1ccccc1-c1nc(CN2CCN(C(=O)c3ccco3)CC2)c(C)o1,2%,7%[46.1 µM],.,-2%,27%,0%[46.1 µM],.,2%
Cc1ccc(-c2nc3cccnc3o2)cc1NC(=O)COc1ccc(Cl)cc1C,?,?,14%,16%,9%,-26%,-2.4%,7%
COc1ccc(Cl)cc1C(=O)NCC(c1ccc(N(C)C)cc1)N1CCCC1 (centres undefined),.,.,17%,.,-22%,-5%[46.1 µM],7.1%,.
O=c1[nH]c2ccccc2c(O)c1SCCO,5%,9%[46.1 µM],.,3%,-7%,-19%[46.1 µM],.,0%
O=C(NC(=S)N1CCN(Cc2ccccc2)CC1)c1cccnc1,2%,9%[46.1 µM],.,-6%,16%,13%[46.1 µM],.,1%
COc1ccc(CCNC(=O)CN(C)S(=O)(=O)c2cccs2)cc1OC,-1%,?,-3%,15%,?,-2%,-1.5%,2%
CCOc1ccc(OCCC(=O)OCC(=O)Nc2ccc(C)c(S(=O)(=O)N3CCCCC3)c2)cc1,.,-5%,.,5%,-8%,2%,.,-2%
CCCCN(C(=O)C1CC(=O)N(c2ccc3c(c2)OCCO3)C1)c1c(N)n(CCCC)c(=O)[nH]c1=O (centres undefined),.,28%,.,-10%,-10%,-2%,.,0%
Cc1cnn(Cc2ccccc2)c1N,-3%,?,0%,-3%,11%,?,12%,-3%
Cc1cc(NC(=O)CSc2nnc(Nc3ccccc3C)s2)no1,0%,.,.,-12%,-5%,.,.,0%
Nc1ccc(S(=O)(=O)N2CC3CC(C2)c2cccc(=O)n2C3)cc1 (centres undefined),5%,.,1%,1%,-22%,.,-1.3%,2%
Cc1cc(C(=O)OCC(=O)Nc2cc(S(=O)(=O)N(C)C)ccc2Cl)c2ccccc2n1,.,13%,.,-18%,-21%,-24%,.,4%
Oc1ccc(/C=N/Nc2cc(N3CCCC3)nc(N3CCCC3)n2)cc1O,?,?,?,-8%,-22%,0%,-10%,?
CCCSCCCNC(=O)Cn1cc2c(n1)CCCCC2,-4%,7%,0%,-2%,-19%,-10%,0.2%,-7%
Cc1cccc(NCC(=O)NNC(=S)Nc2ccccc2)c1,3%,?,.,6%,46%[activator],2%,.,0%
CCCCc1n[nH]c2c1/C(=N/O)CC(c1ccccc1)C2 (centres undefined),?,?,-13%,-16%,0%,?,-0.4%,5%
Cc1ccc(NC(=O)/C=C/c2cccc([N+](=O)[O-])c2)nc1,.,?,.,12%,13%,18%,.,1%
COc1ccc(C(=O)Nc2cccc3cccnc23)cc1OC,-35%,?,7%,3%,5%,-10%,-7.9%,-5%
Cc1ccc(-c2cc(=O)c3ccccc3[nH]2)cc1,-13%,?,6%&-3%,-19%,39%[activator],?,-4.1%&1.0%,-28%
O=C(ON=C1CCSCC1)c1ccccc1,.,14%,.,-26%,-17%,?,.,.

# Next results follow.
SMILES,NS1 inh,MARV entry inh,Cruzain inh noDet,RE007 growth inh,StopGo reporter,LASV entry inh,Cruzain inh Det,SARS PLpro yeast
COc1nc(NC(C)=O)nc(C)c1Br,1%,1%,-3%,.,.,.,-3.4%,-4%
Cn1c(=O)c2c(ncn2CC(=O)Nc2cc(Cl)cc(Cl)c2)n(C)c1=O,.,.,8%,.,-24%,1%[46.1 µM],-8.0%,.
CN(C)CCCNc1c2c(nc3ccccc13)CCC2,-1%,.,.,1%,-9%,.,.,1%
Cc1nn(C)cc1CNC(=O)c1cnn2c(C(F)F)cc(C3CC3)nc12,13%,8%,2%,-4%,-27%,-7%,0.8%,7%
O=C(NCCc1ccccc1)/C(=C\c1ccc([N+](=O)[O-])cc1)NC(=O)c1ccccc1,3%,0%,-29%,-8%,41%[activator],1%,-3.5%,-2%
